# Assay outcomes (PubChem)
# Vif TR-FRET: inhibitors of Vif binding to APOBEC3G peptide, primary screen, biochemical, TR-FRET, GST-Vif 1-94, biotin-A3G peptide, dose response retest (AID 1117319) | TR-FRET GST-Vif / biotin-A3G peptide binding; higher % means a stronger effect; test concentration not given here; strong numbers were not always called active | inhibition, %, or IC50 in µM where a hit was titrated | 0.57% of 260,000 active;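 active = above the screen mean plus three standard deviations and confirmed in dose response; inconclusive = results disagree or hit not tested in dose response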;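 also: Vif residues 1-94 fused to GST binding biotinylated APOBEC3G peptide 110-148; 0% = full assay without inhibitor and 100% = GST in place of GST-Vif; retest series ran down from 100 µM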
# Calb FLC: affects C. albicans growth with fluconazole; 0.57% of 300,000 active; growth inhibition, % (concentration not given with the values); C. albicans CaCi-2 (fluconazole-resistant clinical isolate) + fluconazole, Alamar Blue growth, 48 h;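 active = most replicates above 75%; inconclusive = exactly half above 75%; inactive = most below 75%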;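 also: all wells also contain fluconazole at 8 µg/ml as a sub-toxic cotreatment; 0% = median of DMSO wells and 100% = median of geldanamycin control wells; wells of about 8 µL received 7.5 nL stock; the first replicate is given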
# Beta cell apopt: beta cell apoptosis inhibition; INS-1E cytokine-induced death, ATP luminescence, 48 h; percent of positive-control rescue, neutral wells zero; protection from apoptosis, % (concentration not given with the values); 0.8% of 300,000 active; AID 435005;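 active = all replicates at 75% or more, or half of them and the mean; inconclusive = half reach 75% but not the mean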;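 also: 0% = cytokine-treated negative control wells and 100% = positive control rescue; higher means more ATP so stronger rescue from cytokine killing; wells of about 40 µL received 100 nL stock; the first replicate is given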
# LANA-H2A inh: blocks KSHV LANA binding to histone H2A/H2B; inhibition, % (concentration not given with the values); cell-free LANA-H2A/H2B peptide, fluorescence polarization; 0.6% of 320,000 active; AID 2629; in the data active = inhibition mostly above about 10%, no sharp cut-off; inactive = mostly below about 6.7%;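 also: stock transfer was 7.5 nL into about 10 µL; 0% = median of vehicle wells and 100% = median of positive control wells; one replicate is shown; the record names a cut of 25% in any replicate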
# Target sequence (Q9QR71 whole entry, looked up): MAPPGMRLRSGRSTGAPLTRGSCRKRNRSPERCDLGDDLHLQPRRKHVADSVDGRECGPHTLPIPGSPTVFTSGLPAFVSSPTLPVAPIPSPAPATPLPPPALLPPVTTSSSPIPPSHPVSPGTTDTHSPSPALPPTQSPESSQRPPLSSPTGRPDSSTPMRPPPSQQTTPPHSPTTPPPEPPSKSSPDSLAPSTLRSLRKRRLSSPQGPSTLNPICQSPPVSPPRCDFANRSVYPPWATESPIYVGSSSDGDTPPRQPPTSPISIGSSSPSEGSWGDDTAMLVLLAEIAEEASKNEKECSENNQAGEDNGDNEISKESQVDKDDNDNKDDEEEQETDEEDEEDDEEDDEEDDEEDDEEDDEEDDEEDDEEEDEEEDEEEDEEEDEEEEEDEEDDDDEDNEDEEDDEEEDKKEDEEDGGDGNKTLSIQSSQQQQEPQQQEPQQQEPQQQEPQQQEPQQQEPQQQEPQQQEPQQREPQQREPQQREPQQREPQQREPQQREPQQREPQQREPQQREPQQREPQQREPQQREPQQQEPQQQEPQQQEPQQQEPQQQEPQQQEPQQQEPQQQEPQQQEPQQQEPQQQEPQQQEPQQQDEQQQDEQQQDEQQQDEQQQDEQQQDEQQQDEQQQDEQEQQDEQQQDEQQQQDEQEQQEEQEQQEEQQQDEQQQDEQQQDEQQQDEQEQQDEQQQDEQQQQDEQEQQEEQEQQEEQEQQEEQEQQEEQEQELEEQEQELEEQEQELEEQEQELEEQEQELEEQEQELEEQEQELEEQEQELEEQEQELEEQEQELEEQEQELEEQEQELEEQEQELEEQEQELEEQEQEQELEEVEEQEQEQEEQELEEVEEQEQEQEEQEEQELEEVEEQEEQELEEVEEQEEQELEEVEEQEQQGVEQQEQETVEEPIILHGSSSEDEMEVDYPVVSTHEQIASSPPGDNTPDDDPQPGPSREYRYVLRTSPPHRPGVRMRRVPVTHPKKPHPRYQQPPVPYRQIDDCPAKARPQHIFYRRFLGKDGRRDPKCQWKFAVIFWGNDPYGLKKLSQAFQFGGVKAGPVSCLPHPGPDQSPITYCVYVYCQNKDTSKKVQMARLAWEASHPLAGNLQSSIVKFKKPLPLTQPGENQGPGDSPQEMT
# AF4-AF9 inh: blocks AF4 peptide binding to human AF9; P42568; AlphaScreen, biotin-AF4 peptide binding to FLAG-AF9; inhibition, % at 10 µM; 0.47% of 350,000 active;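 active = every replicate reaching a set inhibition limit, whatever the replicate mean, cut at about 25% in these data; inconclusive = mean inhibition reaches that limit but some replicates miss it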;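 also: 0% = plate neutral control median and 100% = total signal loss; the record names both 10 and 1 µM as test concentration; the first replicate is given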
# T cruzi inh: blocks replication of Trypanosoma cruzi. 1.4% of 300,000 active. inhibition, % (concentration not given with the values). T. cruzi beta-gal in NIH3T3, luminescence, 90 h;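 active = mean inhibition across valid replicates above about 55%, limit read from the data; inconclusive = mean below that limit but half or more replicates reach it; inactive = mean below it, under half of replicates reach it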;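 also: signal also drops with host cell toxicity which is not excluded here; 0% = plate median of DMSO wells and 100% = zero luminescence signal; higher percent means less beta-gal luminescence so fewer parasites; stock transfer was 50 nL into about 50 µL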
# A1 inh: inhibitors of the anti-apoptotic protein A1, read as caspase activation; MEF A1-2A-BIM cells, Caspase-Glo 3/7 luminescence, 3 h; percent of clofoctol response, vehicle zero; caspase activation, % (concentration not given with the values); 0.066% of 330,000 active; AID 2462;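 active = over half of replicate activation scores above 10%, or exactly half above 10 with the replicate mean above 10; inconclusive = replicate mean below 10 yet half the replicates above 10; inactive = over half of replicates below 10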;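 also: wells of about 30 µL received 50 nL stock; many hits fall short of the cut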
# RanGTP-Impb inh: inhibitors of RanGTP-importin-beta interaction, primary screen, biochemical, FRET, CFP-Ran, YFP-importin-beta, homogeneous | cell-free CFP-Ran/YFP-importin-beta FRET ratio | inhibition, % (no concentration beside the values) | 1.1% of 300,000 active | AID 2216;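 active = most replicates above 15%; inconclusive = exactly half above 15%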;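 also: 0% = DMSO wells and 100% = Ran loaded with GDP instead of GTP; wells of about 40 µL received 100 nL stock; the first replicate is given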
# Starred values were filed as active, the others as inactive; ? = inconclusive; . = no result given; & = joins results of further samples.
SMILES,Vif TR-FRET,Calb FLC,Beta cell apopt,LANA-H2A inh,AF4-AF9 inh,T cruzi inh,A1 inh,RanGTP-Impb inh
O=C(/C=C/c1ccc(Cl)cc1)NCCCn1ccnc1,2.5%,-11.8,9.3,2.1,.,-11.0,0.4,2.7
C[C@H](CO)N1C[C@H](C)[C@@H](CN(C)S(=O)(=O)c2cn(C)cn2)Oc2ccc(NC(=O)C3CC3)cc2C1=O,.,.,-9.1,5.0,-1.5&-2.3,.,0.1,.
O=C1CC(/C=C/c2ccco2)=Nc2ccccc2N1,1.69µM*,4.0,-9.2,-0.5,.,4.7,-0.1,24.1*
O=C(NCC1CCCO1)C1CCCN(S(=O)(=O)c2cc(Cl)ccc2Cl)C1 (stereo not given),1.1%,-2.9,.,2.5,-0.9,-3.6,-0.1,?
CN(Cc1cccs1)C(=O)C1CC(=O)N(Cc2ccccc2)C1 (stereo not given),-6.2%,1.6,-12.0,-6.5,-3.6,0.7,0.6,-2.8
CC(C)(C)c1ccc(S(=O)(=O)N2CCc3nc4ccccc4c(C(=O)O)c3C2)cc1,6.8%,2.3,-4.2,-1.1,2.7,-5.4,-0.4,5.0
O=C(Cn1nnc(-c2ccccc2-n2cnnn2)n1)N1CCCCC1,-4.2%,?,-5.2,2.5,.,-2.9,0.0,-1.8
Cc1csc(NC(=O)NC2(C(F)(F)F)Oc3ccccc3O2)n1,18.9%,-5.9,-6.6,3.3,.,-5.4,-0.4,-1.2
O=C(CN1CCc2ccccc2C1)N1CCN(S(=O)(=O)c2ccccc2)CC1,2.0%,-5.7,-3.5,-3.1,.,6.9,-0.5,1.4
C[C@H](NC(=O)c1nc[nH]c1C(=O)N[C@@H](C)C(=O)OCc1ccccc1)C(=O)OCc1ccccc1,.,-0.9,-5.5,-2.2,4.2,-0.5,0.1,-4.7
CCC(=NCCc1ccc(OC)c(OC)c1)c1ccccc1O,0.6%,-12.2,-0.3,-4.1,2.4,-6.3,-0.4,2.1
Cc1cc2cc(CN(CCN(C)C)C(=S)NCc3ccco3)c(=O)[nH]c2cc1C,?,?,.,-0.9,11.1,21.3,-1.1,-5.8
O=C(c1cc([N+](=O)[O-])ccc1N1CCOCC1)N1CCOCC1,-3.3%,-10.9,-10.2,6.9,-6.3,-6.9,0.5,4.5
COc1ccc(NC(=O)c2ccc(-n3cnnn3)cc2)c([N+](=O)[O-])c1,.,22.3,-4.6,-2.5,26.3*,0.6,0.5,-0.7
NC(=O)[C@H]1CC2(CC(c3cccc(NC(=O)[C@H]4CCC(=O)N4)c3)=NO2)CN1C(=O)c1ccccc1 (stereo not given in full),-7.3%,-0.9,-1.5,-6.8,19.0,-21.1,-0.6,-0.8
COc1ccc(N2C(=O)C(Cc3ccccc3)NC2=S)cc1 (stereo not given),-4.5%,-11.6,-0.8,7.5,-2.0,-2.8,0.4,-0.1
Cc1ccc(OCc2cc(C(=O)NCc3cn4ccccc4n3)no2)cc1C,-4.1%,4.7,-8.2,-2.3,0.5,-18.6,-0.1,1.0
CCOc1cc(S(=O)(=O)N2CCN(S(=O)(=O)CC)CC2)c(OCC)cc1-n1cnnn1,.,5.5,4.1,4.0,-2.2,-15.8,0.0,-1.4
Cc1cc(NS(=O)(=O)c2ccc(NC(=O)COc3ccccc3C(C)C)cc2)no1,0.0%,0.5,0.7,-0.7,-5.4,2.7,0.6,3.9
CC(C)C[C@H](NC(=O)c1nc[nH]c1C(=O)NCCCCCN)C(=O)OCc1ccccc1,.,.,-1.6,-4.4,5.7,.,-0.3,.
COc1cccc(-n2c(N)cc(=O)nc2SCC(=O)Nc2cc(C)on2)c1,.,2.7,1.5,4.4,-5.2,1.6,0.1,-7.5
O=C(CCC(=O)N(CC(=O)NC1CCCCC1)Cc1ccccc1)Nc1nccs1,.,2.4,3.9,0.5,0.5,1.4,-0.2,1.0
CS(=O)c1ccccc1O (stereo not given),-2.4%,-2.7,-1.5,38.7*,-2.5,5.0,0.3,-3.7
CCOC(=O)C(=CNc1nc2ccc(C(=O)OCC)cc2s1)C(=O)OCC,-40.6%,-3.8,-1.1,9.0,0.1,5.1,0.0,0.2
COc1cc(OC)cc(OCC(O)Cn2ccnc2)c1 (stereo not given),18.2%,8.5,5.7,1.8,.,35.4,-0.6,4.4

# Molecules above with a nitro group on carbon, in the order listed:
SMILES,Vif TR-FRET,Calb FLC,Beta cell apopt,LANA-H2A inh,AF4-AF9 inh,T cruzi inh,A1 inh,RanGTP-Impb inh
O=C(c1cc([N+](=O)[O-])ccc1N1CCOCC1)N1CCOCC1,-3.3%,-10.9,-10.2,6.9,-6.3,-6.9,0.5,4.5
COc1ccc(NC(=O)c2ccc(-n3cnnn3)cc2)c([N+](=O)[O-])c1,.,22.3,-4.6,-2.5,26.3*,0.6,0.5,-0.7

# Remaining list, next part.
SMILES,Vif TR-FRET,Calb FLC,Beta cell apopt,LANA-H2A inh,AF4-AF9 inh,T cruzi inh,A1 inh,RanGTP-Impb inh
CCOC(=O)c1c(CSCc2ccccc2)oc2ccc(O)c(CN(C)C)c12,7.4%,12.7,12.8,0.1,23.4,38.8,0.2,1.8
O=C(c1cn(-c2ccc(Cl)c(Cl)c2)nn1)C1CC1,.,-13.6,4.2,2.1,-3.3,1.9,-0.5,-3.7
O=C1c2ccccc2C(=O)N1CCOc1ccccc1Br,-5.4%,19.0,-1.4,-3.0,-13.2,11.3,-2.7,1.2
CCCn1c(N2CCN(C(=O)/C=C/C(=O)O)CC2)nc2ccccc21,.,0.8,4.5,-0.8,1.6,-14.3,0.4,-1.2
Cc1ccsc1C(=O)OCC(=O)N1CC(=O)Nc2ccccc21,-9.3%,5.0,-3.7,2.2,.,-2.9,1.3,5.3
CCc1nnc(NC(=O)C2CCCN(S(=O)(=O)c3ccc(OC)cc3)C2)s1 (stereo not given),0.9%,-3.8,-7.5,-0.9,-2.5,10.6,0.4,-1.5
O=c1cc(COc2ccccc2[N+](=O)[O-])nc2sccn12,5.2%,4.2,-5.3,-1.2,-0.7,3.1,-0.5,5.1
CCCCc1nn(-c2cc(Cl)ccc2OC)c2c1C(=O)CCC2,-5.7%,15.5,.,0.9,-14.7,2.0,0.3,-1.8
CC(C)C(NC(=O)Nc1ccccc1)C(=O)Nc1cccc(S(=O)(=O)N(C)C)c1 (stereo not given),3.3%,-2.3,-5.7,2.7,-1.2,-7.6,0.5,-3.9
Cc1ccccc1-n1c(C)n[nH]c1=S,-3.6%,0.9,-3.2,4.5,3.2,-12.9,0.4,6.2
COC(=O)c1ccc(NCCc2csc(-c3ccc(C)cc3)n2)c([N+](=O)[O-])c1,?,4.8,-1.6,0.2,.,6.7,-0.6,4.5
COc1ccc(C[C@H]2CN3C(=NC[C@H]3C)N2CCNC(=O)CCC2CCCCC2)cc1,-9.7%,-10.1,-9.3,0.0,-11.1,-4.5,0.3,-5.1
O=S(=O)(c1ccccc1)c1nc(-c2ccco2)oc1NCc1cccnc1,22.9%,20.9,-5.5,2.2,.,-2.8,0.5,9.6
O=c1ccc(Oc2nc(N3CCOCC3)nc(N3CCOCC3)n2)nn1-c1ccccc1,-5.5%,-4.6,-2.1,-3.5,.,-15.7,0.1,2.1
O=C(c1ccc(F)cc1)C1CCN(Cc2cn[nH]c2-c2ccc(F)cc2)CC1,-9.7%,-0.7,-4.7,-0.9,-1.6,0.6,-0.2,1.0
Cc1ccc(-n2c(SCC(N)=O)nnc2-c2cccnc2)c(C)c1,0.7%,-1.5,-6.4,9.6,.,-2.3,0.5,?
Cc1ccc(NC(=O)CN2CCC(NC(=O)Cc3ccccc3)CC2)c(C)c1,.,-25.3,1.6,2.1,-2.6,-2.3,-0.4,.
COc1cccc(-n2c(Cc3cc(=O)[nH]c(=O)[nH]3)nnc2SCC(=O)N2CCCCC2)c1,-3.8%,11.8,-6.2,6.2,-3.1,-13.4,-1.1,-0.4
Cc1ccc(CN2CCN(Cc3ccc(C)s3)CC2CCO)cc1 (stereo not given),-4.7%,-15.5,-1.5,7.2,2.6,43.6,0.1,-3.2
CCOc1ccccc1NC(=O)C1C2CCC(O2)C1C(=O)O (stereo not given),0.0%,1.3,-2.9,2.3,0.5,-10.4,0.2,-5.9
CN(C)/C=C(\C#N)C(=O)Nc1ccc(F)cc1,?,9.7,-4.3,-1.7,.,-25.3,-1.2,5.5
CCOC(=O)C1=C(C)N=C2SC(C)C(=O)N2C1c1ccc(OCC)c(OCC)c1 (stereo not given),2.2%,-1.5,-4.8,-5.9,.,9.9,0.1,-1.4
CN(C)C=NC(=O)c1cc(C(=O)c2ccccc2Cl)c[nH]1,-6.8%,27.5,-0.4,-2.8,0.2,-8.5,2.5,0.9
O=S(=O)(NCC1CCCO1)c1ccccc1F (stereo not given),.,2.6,.,-0.7,-4.4,-2.0,0.6,-5.6
CCOC(=O)C1=C(N)Oc2c(oc(CO)cc2=O)C1c1ccccc1 (stereo not given),11.8%,0.2,-1.0,10.3,1.0,-19.4,0.0,3.3

# The listing continues.
SMILES,Vif TR-FRET,Calb FLC,Beta cell apopt,LANA-H2A inh,AF4-AF9 inh,T cruzi inh,A1 inh,RanGTP-Impb inh
COc1ccc(Oc2cccc(Cl)c2CNC(=O)CCC(=O)O)cc1,-3.3%,-9.3,-7.3,0.4,0.7,-0.2,-0.1,2.6
O=C1CC2CS(=O)(=O)CC2N1c1ccc(Oc2ccccc2)cc1 (stereo not given),0.2%,1.8,-1.6,2.2,.,-2.8,0.6,-1.3
NC(=O)Cn1cc(C(=O)COc2ccccc2)c2ccccc21,-3.8%,8.3,-3.7,-8.2,-1.7,-15.9,0.1,2.1
COC(=O)c1ccc(NC(=S)NCCc2cccc(C)c2)cc1,8.5%,-10.8,2.3,9.2,.,5.8,.,-3.6
Cc1ccccc1NC(=O)c1ccc(C)c(S(=O)(=O)Nc2ccccn2)c1,31.4%,36.8,0.6,-5.9,1.3,.,0.5,-3.3
Cc1ccc(NC(=O)C2CC(=O)NC(Nc3cccc(C)c3)=N2)cc1 (stereo not given),5.0%,-0.9,-2.3,-1.5,.,-0.3,0.6,-0.5

# Rewritten with bars between the fields: 4 of the compounds above.
SMILES | Vif TR-FRET | Calb FLC | Beta cell apopt | LANA-H2A inh | AF4-AF9 inh | T cruzi inh | A1 inh | RanGTP-Impb inh
COC(=O)c1ccc(NC(=S)NCCc2cccc(C)c2)cc1 | 8.5% | -10.8 | 2.3 | 9.2 | . | 5.8 | . | -3.6
Cc1ccc(NC(=O)C2CC(=O)NC(Nc3cccc(C)c3)=N2)cc1 (stereo not given) | 5.0% | -0.9 | -2.3 | -1.5 | . | -0.3 | 0.6 | -0.5
COc1ccc(Oc2cccc(Cl)c2CNC(=O)CCC(=O)O)cc1 | -3.3% | -9.3 | -7.3 | 0.4 | 0.7 | -0.2 | -0.1 | 2.6
O=C1CC2CS(=O)(=O)CC2N1c1ccc(Oc2ccccc2)cc1 (stereo not given) | 0.2% | 1.8 | -1.6 | 2.2 | . | -2.8 | 0.6 | -1.3
